Screening data: PubChem, several laboratories
AF4-AF9 inh = MLL-AF4/AF9 protein interaction inhibition. AlphaScreen, biotin-AF4 peptide binding to FLAG-AF9. 350,000 tested, 0.47% active. P42568. inhibition, % at 10 µM. AID 651704;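 active = every replicate reaching a set inhibition limit, whatever the replicate mean, cut at about 25% in these data; inconclusive = mean inhibition reaches that limit but some replicates miss it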;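 also: 0% = plate neutral control median and 100% = total signal loss; the record names both 10 and 1 µM as test concentration; the first replicate is given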
Target sequence (P42568 whole entry, looked up): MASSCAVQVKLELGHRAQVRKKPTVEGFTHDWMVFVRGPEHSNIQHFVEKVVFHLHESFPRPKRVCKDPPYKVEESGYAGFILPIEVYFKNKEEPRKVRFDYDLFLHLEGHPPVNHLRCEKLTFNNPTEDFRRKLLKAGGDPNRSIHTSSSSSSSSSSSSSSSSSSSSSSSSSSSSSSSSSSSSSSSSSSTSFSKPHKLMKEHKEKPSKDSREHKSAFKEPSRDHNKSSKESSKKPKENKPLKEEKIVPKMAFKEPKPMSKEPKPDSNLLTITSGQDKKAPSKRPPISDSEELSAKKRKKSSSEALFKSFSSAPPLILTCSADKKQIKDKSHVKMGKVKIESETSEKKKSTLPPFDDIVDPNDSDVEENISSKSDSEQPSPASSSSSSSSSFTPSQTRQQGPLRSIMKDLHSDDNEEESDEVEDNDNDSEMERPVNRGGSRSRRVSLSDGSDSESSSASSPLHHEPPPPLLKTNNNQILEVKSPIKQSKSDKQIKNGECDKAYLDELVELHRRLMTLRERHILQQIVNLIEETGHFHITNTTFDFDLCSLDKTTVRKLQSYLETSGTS
RanGTP-Imp inh = disruptors of Ran-importin-beta complex formation – biochemical, FRET, CFP-Ran, YFP-importin-beta, homogeneous, primary screen; AID 2216; cell-free CFP-Ran/YFP-importin-beta FRET ratio; 300,000 tested, 1.1% active; inhibition, % (no concentration beside the values);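 active = most replicates above 15%; inconclusive = exactly half above 15%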;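 also: 0% = DMSO wells and 100% = Ran loaded with GDP instead of GTP; wells of about 40 µL received 100 nL stock; the first replicate is given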
Ecoli rRNA inh = inhibits bacterial ribosomal RNA function over humanized ribosomes | E. coli WT GFP vs humanized-ribosome RFP mutants, fluorescence, 24 h; stronger effect = lower value; DMSO median 0, no signal -100 | GFP signal change (wild-type ribosome), % (no concentration beside the values) | 350,000 tested, 1.6% active;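 active = significant combined selectivity score with lowered wild-type GFP, culture density cut under 30%, mutant RFP and density less affected; inactive = any of these conditions unmet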; also: one replicate is shown; some compounds called inactive have numbers as strong as hits
Vif TR-FRET = inhibitors of Vif binding to APOBEC3G peptide, primary screen, biochemical, TR-FRET, GST-Vif 1-94, biotin-A3G peptide, dose response retest (AID 1117319). TR-FRET GST-Vif / biotin-A3G peptide binding; higher % means a stronger effect; test concentration not given here; strong numbers were not always called active. inhibition, %; hits with a dose series show IC50 in µM. 260,000 tested, 0.57% active;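 active = above the screen mean plus three standard deviations and confirmed in dose response; inconclusive = results disagree or hit not tested in dose response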;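 also: Vif residues 1-94 fused to GST binding biotinylated APOBEC3G peptide 110-148; 0% = full assay without inhibitor and 100% = GST in place of GST-Vif; retest series ran down from 100 µM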
Bfl-1 A1 inh = inhibitors of the anti-apoptotic protein A1, read as caspase activation. MEF A1-2A-BIM cells, Caspase-Glo 3/7 luminescence, 3 h; percent of clofoctol response, vehicle zero. caspase activation, % (no concentration beside the values). 330,000 tested, 0.066% active. AID 2462;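 active = over half of replicate activation scores above 10%, or exactly half above 10 with the replicate mean above 10; inconclusive = replicate mean below 10 yet half the replicates above 10; inactive = over half of replicates below 10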;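 also: wells of about 30 µL received 50 nL stock; many hits fall short of the cut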
Calb FLC = C. albicans growth modulation with fluconazole; C. albicans CaCi-2 (fluconazole-resistant clinical isolate) + fluconazole, Alamar Blue growth, 48 h; growth inhibition, % (no concentration beside the values); 300,000 tested, 0.57% active; AID 1979;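 active = most replicates above 75%; inconclusive = exactly half above 75%; inactive = most below 75%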;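 also: all wells also contain fluconazole at 8 µg/ml as a sub-toxic cotreatment; 0% = median of DMSO wells and 100% = median of geldanamycin control wells; wells of about 8 µL received 7.5 nL stock; the first replicate is given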
Beta cell apopt = beta cell apoptosis inhibition | INS-1E cytokine-induced death, ATP luminescence, 48 h; percent of positive-control rescue, neutral wells zero | protection from apoptosis, % (concentration not given with the values) | 300,000 tested, 0.8% active | AID 435005;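 active = all replicates at 75% or more, or half of them and the mean; inconclusive = half reach 75% but not the mean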;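 also: 0% = cytokine-treated negative control wells and 100% = positive control rescue; higher means more ATP so stronger rescue from cytokine killing; wells of about 40 µL received 100 nL stock; the first replicate is given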
T cruzi repl = T. cruzi replication inhibition | AID 1885 | inhibition, % (concentration not given with the values) | 300,000 tested, 1.4% active | T. cruzi beta-gal in NIH3T3, luminescence, 90 h;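 active = mean inhibition across valid replicates above about 55%, limit read from the data; inconclusive = mean below that limit but half or more replicates reach it; inactive = mean below it, under half of replicates reach it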;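 also: signal also drops with host cell toxicity which is not excluded here; 0% = plate median of DMSO wells and 100% = zero luminescence signal; higher percent means less beta-gal luminescence so fewer parasites; stock transfer was 50 nL into about 50 µL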
Ecoli rRNA inh OD600 = second read-out of Ecoli rRNA inh, no call of its own (marks repeat the call); OD600 change, %; measured here: OD600 growth;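 optical density of the mix in the first replicate; 0 = DMSO median and -100 = no signal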
Ecoli rRNA inh RFP = second read-out of Ecoli rRNA inh, no call of its own (marks repeat the call); RFP signal change, %; measured here: RFP humanized mutant strains;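 first replicate; 0 = DMSO median and -100 = no signal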
Active calls of the source: *; u = inconclusive; x = not tested or not shown; & = joins results of further samples.

compound | AF4-AF9 inh | RanGTP-Imp inh | Ecoli rRNA inh | Ecoli rRNA inh OD600 | Ecoli rRNA inh RFP | Vif TR-FRET | Bfl-1 A1 inh | Calb FLC | Beta cell apopt | T cruzi repl
Cc1cccn2c(=O)nc(SCC(=O)c3ccc(Cl)cc3)nc12 | -1.3 | 2.1 | 8 | 6 | -3.4 | x | 3.0 | -1 | x | 2
CC1=NN(c2ccccc2)C(=O)/C1=C/c1ccc(Cl)cc1 | 2.7 | -2.7 | 10 | 20 | 1.3 | x | -0.2 | -2 | -9 | 6
COCCNC(=O)c1cc(-c2ccccc2)n(Cc2cc(C)no2)n1 | 1.3 | x | 0 | -1 | 2.0 | x | 0.4 | x | 4 | x
CC(C)(C)c1ccc(/C=C(\C#N)C(=O)Nc2ccccn2)cc1 | 1.1 | -1.5 | 4 | 13 | 2.0 | -6% | 0.7 | -17 | -2 | -4
COC(=O)c1ccccc1NC(=O)CNC(=O)c1ccco1 | x | 1.2 | x | x | x | -1% | -0.4 | 1 | x | -7
CCc1ccc(C(=O)Nc2cccc(-c3nn[nH]n3)c2)s1 | -3.5 | -2.5 | -2 | -9 | -1.6 | -7% | -4.5 | 3 | -1 | -6
COc1ccc(/C=C2\SC(=S)N(CCC(=O)NC3CCCC3)C2=O)cc1OC | -1.2 | -2.8 | -7 | -4 | -5.6 | x | -0.3 | 21 | x | -3
C=CCn1c(CNC(=O)c2ccco2)nnc1SCC(=O)c1ccc(F)cc1 | -3.3 | u | 2 | 10 | -2.8 | x | 1.8 | 9 | -2 | -11
COc1ccc(C)cc1NC(=O)N1CCCc2ccccc21 | -8.2 | 1.3 | -2 | -12 | 0.3 | 2% | -0.7 | -7 | 5 | -9
CC1CCc2nn(CC(=O)NCc3ccco3)cc2C1 (stereo unspecified) | 0.3 | u | 10 | 8 | -0.2 | 9% | -0.7 | 3 | 0 | -2
CCOc1ccccc1NC(=O)COC(=O)c1cc[n+]([O-])cc1 | 3.5 | 4.9 | 3 | 2 | -3.6 | x | 0.6 | u | -6 | -1
COc1ccccc1-n1c(SCC(=O)Nc2ccccc2F)nc2[nH]ncc2c1=O | x | -2.0 | x | x | x | 3% | -0.5 | 9 | 1 | 1
O=C(/C=C/c1ccco1)N1CCN(S(=O)(=O)c2cccs2)CC1 | 0.7 | -7.4 | 8 | 5 | 0.3 | u | -0.6 | 1 | -3 | -2
Cc1ccc(N2CCN(C(=O)c3nn(C)c4c3CS(=O)(=O)c3ccccc3-4)CC2C)cc1 (stereo unspecified) | 3.8 | -3.2 | -1 | -40 | -1.8 | x | -0.1 | 9 | 0 | -1
CN1C(C)(C)CC(NC(=O)CCC(=O)NC2CC(C)(C)N(C)C(C)(C)C2)CC1(C)C | x | -1.2 | x | x | x | 4% | 0.7 | 23 | -1 | 3
CCOC(=O)c1c(NC(=S)NC)sc2c1CCCC2 | -2.2 | -1.0 | 0 | -1 | -0.8 | 3% | -0.3 | 1 | -2 | 0
COc1ccc(/C=N\NC(=O)c2ccc(-c3ccccc3)cc2)c(OC)c1OC | -2.8 | x | 5 | 8 | 0.1 | -9% | -2.1 | -14 | -5 | x
Cc1ccc(C(=O)N/C(=C/c2ccc(-c3cc(C(F)(F)F)ccc3Cl)o2)C(=O)NCc2cccnc2)cc1 | x | 1.2 | x | x | x | -7% | 0.3 | 72 | 10 | 44
C/C(=N\NC(=O)CNC(=O)c1ccc(F)cc1)c1ccco1 | 0.1 | 2.5 | 1 | 0 | -3.0 | 15% | 0.7 | 5 | -2 | 7
COc1ccc(O)c(/C=N/Nc2nc(Nc3ccccc3)nc(-n3nc(C)cc3C)n2)c1 | x | 0.7 | x | x | x | 3% | 0.8 | -3 | 96* | 35
O=C(CNC(=O)c1cccs1)OCC(=O)c1ccc(Br)cc1 | -1.0 | 1.4 | 5 | -6 | 0.2 | x | -0.9 | 10 | 2 | -3
O=C(CNC(=O)c1cccc(Cl)c1)Nc1ccc(F)c(F)c1F | 3.6 | 1.7 | 4 | 20 | 3.5 | -5% | 1.0 | 0 | 1 | -1
CSc1ccc(CCNC(=O)c2cccc3c2C(=O)N(C2CCCCC2)C3)cc1 | x | -1.7 | x | x | x | x | 0.2 | -1 | -2 | 22
Cc1cc2nc(-c3ccc(SCC(=O)Nc4ccc(S(=O)(=O)N5CCCC5)cc4)nc3)[nH]c2cc1C | x | 7.5 | x | x | x | -78% | -3.3 | -4 | 8 | 10
CC(NC(=O)COC(=O)c1ccccc1Nc1ccccc1)c1ccccc1 (stereo unspecified) | x | -2.2 | x | x | x | x | 2.7 | -18 | 5 | -18
CCC(C)NCCCCOc1ccc(C)cc1[N+](=O)[O-] (stereo unspecified) | 2.9 | 5.9 | 8 | -6 | -3.8 | 22% | 0.7 | -10 | -3 | -7
Cc1ccc(S(=O)(=O)NCc2cn3ccsc3n2)c(C)c1 | x | -1.1 | x | x | x | 11% | -0.1 | 9 | 0 | -7
O=C(Nc1cccc(-c2nc3ccccc3[nH]2)c1)c1ccccn1 | 1.0 | 1.9 | -7 | -10 | 0.0 | x | -2.7 | -4 | -3 | 13
N#CC1(c2ccccc2)CCCN1C(=O)c1ccccc1Cl (stereo unspecified) | x | -3.9 | x | x | x | 8% | -0.2 | 30 | -5 | 1
Cc1cccc(OCCCC(=O)N2CCCCCC2)c1C | -0.1 | -1.9 | -3 | -5 | -2.0 | x | -0.1 | -2 | -3 | -4
CC(On1c(-c2ccccc2)nc2ccc(Cl)cc21)C(=O)O (stereo unspecified) | -1.5 | 1.7 | -7 | -3 | -2.8 | 23% | -0.4 | -4 | -9 | 8
CC(=O)n1cc([C@@H]2C=C(C(=O)NCc3ccccc3)O[C@H](OCc3ccc(CO)cc3)C2)c2ccccc21 | -4.4&3.4 | -0.3 | 4 | 7 | 6.3 | x | -0.9 | -4 | 6 | 36
CC[C@H](C)[C@H](NC(=O)c1ccc(Cl)cc1)C(=O)OCC(=O)c1c(N)n(C)c(=O)n(C)c1=O | -4.8 | x | -4 | -13 | 6.9 | 2% | -0.2 | x | -1 | x
Cc1ccccc1CCNC(=O)Cn1ccc2cc(S(=O)(=O)N3CCCC3)ccc21 | 0.3 | -0.7 | 4 | 1 | 3.2 | 0% | 2.7 | -7 | 4 | -4
COc1ccccc1C(=O)n1nc(-c2ccc(Cl)cc2)nc1N | x | 0.0 | x | x | x | 20% | 0.1 | 13 | -8 | 6
COc1cccc(NC(=O)[C@H](CC(C)C)NC(=O)N2CCn3c2nc2ccccc23)c1 | 2.2 | 0.8 | -4 | 1 | 4.4 | x | -0.3 | 9 | 0 | 16
CCOC(=O)C(=O)NNc1ccc(Cl)cc1 | 1.0 | 1.7 | 8 | -3 | 1.6 | -15% | 0.5 | -20 | -1 | 48
Cc1cc(OC(C)C(=O)Nc2ccccc2C(=O)N2CCCC2)ccc1Cl (stereo unspecified) | 0.5 | -1.3 | -19 | -22 | -5.6 | x | -1.1 | -13 | 7 | 3
COCCNC(=O)c1cc2c(-c3ccccc3F)nn(C)c2s1 | x | -1.4 | x | x | x | 27% | 0.6 | 8 | 3 | 21
Cc1c(N2C(=O)/C(=C\C3CC=CCC3)SC2=S)c(=O)n(-c2ccccc2)n1C (stereo unspecified) | -4.2 | 3.6 | x | x | x | -6% | 1.0 | 11 | -6 | -14
O=C(c1ccco1)N1CCN(c2ncnc3c2[nH]c2ccc(Cl)cc23)CC1 | x | 3.6 | x | x | x | 13% | 0.1 | 27 | 8 | -11
COc1ccccc1N1CC(C(=O)Nc2nnc(SC)s2)CC1=O (stereo unspecified) | -1.8 | -1.0 | -5 | -26 | -1.7 | x | -1.4 | 0 | -1 | 17
COc1ccc(C2/C(=C(/O)c3ccccc3)C(=O)C(=O)N2c2ccccn2)c(OC)c1 (stereo unspecified) | x | -2.8 | x | x | x | 2% | -0.4 | 28 | -2 | -15
COc1ccc(CC(=O)OC(C)CN2CCOCC2)cc1 (stereo unspecified) | -0.5 | 0.6 | 14 | 17 | 1.0 | 10% | 0.9 | 8 | -1 | 1
Cc1ccc(C2CC(=O)N3CN(Cc4ccco4)CSC3=C2C#N)cc1 (stereo unspecified) | x | 2.9 | x | x | x | 13% | 0.0 | 34 | -5 | 18

By substructure, the entries above containing an aryl thioether with sulfur outside any ring (6)
compound | AF4-AF9 inh | RanGTP-Imp inh | Ecoli rRNA inh | Ecoli rRNA inh OD600 | Ecoli rRNA inh RFP | Vif TR-FRET | Bfl-1 A1 inh | Calb FLC | Beta cell apopt | T cruzi repl
Cc1cccn2c(=O)nc(SCC(=O)c3ccc(Cl)cc3)nc12 | -1.3 | 2.1 | 8 | 6 | -3.4 | x | 3.0 | -1 | x | 2
C=CCn1c(CNC(=O)c2ccco2)nnc1SCC(=O)c1ccc(F)cc1 | -3.3 | u | 2 | 10 | -2.8 | x | 1.8 | 9 | -2 | -11
COc1ccccc1-n1c(SCC(=O)Nc2ccccc2F)nc2[nH]ncc2c1=O | x | -2.0 | x | x | x | 3% | -0.5 | 9 | 1 | 1
CSc1ccc(CCNC(=O)c2cccc3c2C(=O)N(C2CCCCC2)C3)cc1 | x | -1.7 | x | x | x | x | 0.2 | -1 | -2 | 22
Cc1cc2nc(-c3ccc(SCC(=O)Nc4ccc(S(=O)(=O)N5CCCC5)cc4)nc3)[nH]c2cc1C | x | 7.5 | x | x | x | -78% | -3.3 | -4 | 8 | 10
COc1ccccc1N1CC(C(=O)Nc2nnc(SC)s2)CC1=O (stereo unspecified) | -1.8 | -1.0 | -5 | -26 | -1.7 | x | -1.4 | 0 | -1 | 17

Following part.
compound | AF4-AF9 inh | RanGTP-Imp inh | Ecoli rRNA inh | Ecoli rRNA inh OD600 | Ecoli rRNA inh RFP | Vif TR-FRET | Bfl-1 A1 inh | Calb FLC | Beta cell apopt | T cruzi repl
Cc1nc2ccccc2c2oc(C(=O)NCc3ccc4c(c3)OCO4)cc12 | -9.9 | -6.3 | -7 | -19 | 20 | -6% | -0.1 | 8 | 10 | 4
Cc1ccc(NC(=O)CCC(=O)NNC(=O)c2ccccc2Cl)c(C)c1 | -2.4 | -4.0 | 25 | 20 | 1.4 | -4% | 0.7 | 3 | -2 | -5
Cc1cc(Cl)ccc1OCCCC(N)=O | x | -1.0 | x | x | x | 0% | 0.3 | 1 | x | 4
CCN(c1cccc(C)c1)S(=O)(=O)c1cc2c3c(c1)CCC(=O)N3CCC2 | 0.6 | -1.1 | -10 | -28 | -2.2 | 6% | 1.2 | 1 | 0 | 11

An excerpt; count on the stated rates, not on these rows.
